Source: PubChem BioAssay
BJeLR viability – MLPCN primary cell-based screen for lethality selective to Ras in HRASV12 cells; actives 0.17% (n = 300,000); AID 1554, 2009; BJeLR (HRASV12) viability, CellTiter-Glo ATP luminescence, 48 h; reference of the scale not given here; inhibition, % (test concentration not listed);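 active = replicate mean above 50%; inconclusive = above 50% but judged a plate artefact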;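 also: 50 nL library stock added to about 25 µL; numbers are from one replicate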
Mtb hypoxia inh – PubChem AID 1159583; M. tuberculosis hypoxia-regulated fluorescent reporter, fluorescence; fluorescence inhibition, % (concentration not given with the values); actives 0.1% (n = 300,000);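 active = 35 to 45% if threefold the growth effect, above 45% if 1.5-fold the growth effect; inactive = the rest, general growth blockers included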;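 also: wells of about 50 µL received 100 nL stock; 0% = vehicle wells and 100% = reference inhibitor wells; whole bacteria with a GFP reporter of the hypoxia response; strong numbers were not always called active; many hits fall short of the cut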
PrP 5UTR inh – inhibition of PrP 5' UTR reporter expression; actives 0.35% (n = 340,000); cell-based PrP 5' UTR mRNA reporter, plate reader; inhibition, % (concentration not given with the values); AID 488862, 2010;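 active = every replicate at 50% or more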;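 also: 0 = median of the neutral control wells; tested in H4 reporter cells; numbers are from one replicate; inactives centre near -14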
Bead autofluor – flagged as autofluorescent in microsphere protease counterscreen | compound autofluorescence counterscreen, microsphere flow cytometry; stronger effect = higher value | fluorescence intensity (no concentration beside the values) | actives 3.1% (n = 360,000) | AID 624483;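 active = at least 3 SD above the mean of all compounds, about 16000 in these data; inconclusive = too few beads counted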;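 also: 100 nL of 1 mM stock went into each well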
Sa RN4220 lethal – growth inhibition of S. aureus RN4220, primary screen, OD600; 16 h; inhibition, % (no concentration beside the values); actives 0.33% (n = 330,000); AID 1259311, 2017;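 active = z-score of -3 or lower and OD600 up to 0.18 on both plates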;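 also: plate controls were untreated cells for no effect and reference antibiotic for full effect; stock transfer was 100 nL into about 80 µL; one replicate is shown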
ugtP null kill – growth inhibition of ugtP-null S. aureus, primary screen, RN4220 ugtP deletion, OD600. actives 0.54% (n = 330,000). 16 h; some inactives read as strong as hits. growth inhibition, % (concentration not given with the values);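 active = z-score under -3 and OD600 up to 0.15 on both plates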;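 also: plate controls were untreated wells for no effect and antibiotic for full effect; wells of about 80 µL received 100 nL stock; the first replicate is given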
Mtb hypoxia inh growth – recorded beside Mtb hypoxia inh, whose call it bears; growth inhibition, %; measured here: M. tuberculosis growth (absorbance);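 0% = vehicle and 100% = reference antibiotic; read after six days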
* hit, by the source's call; ? = inconclusive; · = not tested or not shown.

SMILES | BJeLR viability | Mtb hypoxia inh | Mtb hypoxia inh growth | PrP 5UTR inh | Bead autofluor | Sa RN4220 lethal | ugtP null kill
CCC(C)c1ccc(NC(=O)COc2c(F)c(F)c(C(F)(F)F)c(F)c2F)cc1 (stereo not drawn) | -2 | 16 | -1 | -19 | 2625 | 58 | 76
NC(=S)Nc1ccc2cc[nH]c2c1 | 4 | 18 | 18 | 0 | 2361 | 1.7 | 8
COC(=O)c1cc(S(=O)(=O)N2CCN(c3ccc(C(C)=O)cc3)CC2)c[nH]1 | 4 | 1 | -4 | -12 | 4627 | 3.8 | 10
CC(C)(C)NC(=O)NC(=O)COC(=O)Cn1c(C(F)(F)F)nc2ccccc21 | 5 | 16 | 2 | -23 | 3391 | 3.9 | 17
Cc1cc(OCC(=O)Nc2ccc(CN3CCOCC3)cc2)c2c(C)cc(=O)oc2c1 | 4 | -2 | -10 | -11 | 5899 | 4.7 | 15
O=C(c1ccsc1)N1CCCC(N2CCN(c3cccc(Cl)c3)CC2)C1 (stereo not drawn) | 0 | 8 | -1 | -9 | 5981 | 1.9 | 0
c1ccc(CSc2nnc(-c3cccs3)n2Cc2ccco2)cc1 | 3 | 13 | 7 | -37 | 20965* | 5.8 | -9
CCCc1cc(C(=O)NNC(=S)NCC)c2ccccc2n1 | -3 | 5 | 5 | 5 | 1976 | 1.1 | -2
COc1ccc(NC(=O)NCc2ccco2)cc1OC | -5 | -1 | 0 | -7 | 4239 | 1.0 | -2
CC(C)CCNC(=O)C1CCN(S(=O)(=O)c2ccc3c(c2)CC(C)N3C(=O)C2CC2)CC1 (stereo not drawn) | 0 | 5 | 10 | -10 | 5473 | -4.2 | -4
COc1ncnc2c1NC1=C(S2)C(=NCCC(=O)O)CC(C)(C)C1 | -2 | 16 | 14 | -27 | 2789 | -6.1 | -2
Cc1ccccc1CN1N=C(/C=C/c2ccccc2)CCC1=O | -1 | 9 | -8 | -4 | 3666 | -1.2 | 28
COC(=O)CSc1nc2ccc(NC(=O)c3ccccc3C(=O)N3CCOCC3)cc2s1 | -4 | 5 | 13 | -9 | 2125 | -1.3 | -12
CCC(=O)NC(=S)Nc1ccccc1F | -1 | · | · | 2 | 2142 | -5.6 | 12
N#CC1=C(N)N=C(SCc2ccccc2)C(C(N)=O)C12CCCCC2 (stereo not drawn) | 16 | 6 | 8 | -13 | 10141 | 0.5 | -6
COc1ccc(NS(=O)(=O)c2cc(NC(=O)c3nc4nc(C)cc(C)n4n3)ccc2C)cc1 | · | 10 | 2 | -24 | 4315 | 4.3 | 5
COc1ccc(N(CC(=O)N/N=C/c2cccc(OC)c2OC)S(=O)(=O)c2ccccc2)cc1 | 4 | · | · | -17 | 3594 | · | ·
Cc1ccc(C)c(N2CCN(C(=O)C3CCCN(S(=O)(=O)c4c(C)[nH]c(=O)[nH]c4=O)C3)CC2)c1 (stereo not drawn) | 6 | · | · | -17 | 2429 | 2.3 | -8
C=CCSc1nc(-c2ccc(OC)cc2)c(C#N)c(=O)n1CC=C | 2 | 1 | 15 | -9 | 4663 | 2.3 | 6
O=C(CCC(=O)N(CC(=O)NC1CCCCC1)Cc1ccccc1)Nc1ccccn1 | -2 | 6 | 5 | -17 | 5024 | 3.8 | 11
CCOC(=O)CC1(NC(=O)c2cc(COc3c(F)cccc3F)on2)CCCCC1 | 0 | 8 | 7 | -26 | · | -2.2 | 5
CC1(C)CC(NC(=O)c2cc([N+](=O)[O-])cc([N+](=O)[O-])c2)CC(C)(C)N1 | 9 | -10 | 12 | -57 | 3885 | -4.0 | -2
O=C(CSc1ccc(-c2cccnc2)nn1)Nc1ccccc1C(F)(F)F | 6 | 2 | 11 | -26 | 5597 | 0.4 | 2
CCOc1ccc(NS(=O)(=O)c2ccc(NC(=S)NC(=O)C(C)C)cc2)cc1 | -9 | · | · | -12 | 2329 | -1.1 | 75
COC(=O)c1cc(-c2ccc(Cl)cc2)n(-c2ccc(S(N)(=O)=O)cc2)n1 | -5 | 19 | 7 | -12 | 4492 | 1.9 | -3
COc1ccccc1CNC(=O)CN1C(=O)NC(c2ccccc2)(c2ccc(C)c(C)c2)C1=O (stereo not drawn) | · | -7 | 4 | 6 | 6590 | -7.8 | -15
CCOC(=O)C(C)c1n[nH]c(=O)c2ccccc12 (stereo not drawn) | 5 | -2 | 7 | -23 | 9854 | 6.3 | 5
Cc1ccc(/C=C2/SC(=O)N(CC(=O)N3CCOCC3)C2=O)s1 | -8 | -1 | -8 | -48 | 8428 | 0.1 | -3
COc1ccc(-n2nc(C(=O)NCC(=O)NCc3ccc(F)cc3)c3ccccc3c2=O)c(OC)c1 | · | 5 | 1 | -42 | 9985 | 5.1 | 7
CC(C)n1nc(C(=O)NNC(=O)c2ccncc2)c2ccccc2c1=O | 0 | -3 | -8 | -20 | · | 4.2 | 8
COc1ccc(S(=O)(=O)NCC(=O)N(CC2CCCO2)C(C(=O)NC2CCCC2)C(C)C)cc1 (stereo not drawn) | -3 | 2 | 1 | -11 | 3392 | -0.8 | 10
O=C(Nc1ccc2c(c1)OCO2)c1cncc(Br)c1 | 6 | 11 | -1 | · | 10854 | 5.4 | 2
COc1ccc(Cc2nc3ccc(C(=O)NCCCSC)cc3o2)cc1OC | 8 | -4 | 1 | -41 | 3191 | 4.8 | 7
CCc1noc(C)c1C(=O)NNC(=O)c1cc(OC)c(OC)c(OC)c1 | -5 | 4 | 9 | -9 | 6631 | 3.9 | 7
COc1ccc(C(=O)NCC(=O)OCC(=O)Nc2cc(OC)ccc2OC)cc1 | -2 | -6 | -1 | -14 | 5573 | -6.7 | -5
CC(=O)Nc1ccc(Nc2nc(C)nc3c2nnn3Cc2ccccc2Cl)cc1 | -1 | · | · | -28 | 4406 | · | ·
C=CCn1c(O)c(C(CC)=Nc2ccccc2NC(C)=O)c(=O)[nH]c1=O | · | -4 | 6 | -3 | 8842 | -0.4 | 0
CC1CC1C(=O)OCC(=O)NCc1ccc(Cl)cc1 (stereo not drawn) | 3 | 19 | 17 | -13 | 4635 | 3.2 | 0
CC(=O)N(Cc1ccc(Br)cc1)c1ccccc1C(=O)O | -9 | 15 | 5 | -23 | 3945 | -0.7 | 5
O=C(NC1CCCC1)C(c1ccc(F)cc1)N(Cc1ccc(F)cc1)C(=O)CCl (stereo not drawn) | 8 | 10 | 13 | -11 | 7443 | 22 | 7
CC1(C)S/C(=N/N=C/c2ccco2)NC1=O | 2 | · | · | -27 | 3228 | · | ·
COc1ccc(CCNC(=O)CC(C)=NNC(=O)C(c2ccccc2)c2ccccc2)cc1OC | · | -1 | -3 | · | · | -0.5 | 5
O=C1NC(c2cccs2)C(C(=O)c2ccccc2)C(O)(C(F)(F)F)N1 (stereo not drawn) | -5 | -7 | 4 | -5 | 7137 | 2.5 | -2
COCCNC(=O)c1c[nH]c2cc(OC)c(OC)cc2c1=O | -2 | 6 | 11 | -5 | 9533 | 3.0 | 5
Cc1c(O)ccc2c(CN3CCOCC3)cc(=O)oc12 | -1 | 5 | 2 | -15 | 5794 | 1.2 | -3
CCC(=NO)c1ccc(O)c(OC)c1 | · | 10 | 4 | · | · | 2.4 | 9
CCOC(=O)CCCCNC(=O)Nc1ccccc1 | -1 | -9 | 8 | -14 | 3778 | 5.8 | 3
COC(=O)C1=NN(c2ccc(Cl)cc2)C2C(=O)N(c3ccccc3OC)C(=O)C12 (stereo not drawn) | -11 | 8 | 7 | 11 | 2095 | 3.8 | -5
CC(C)(C)c1ccc(S(=O)(=O)NNC(=O)C2CCN(Cc3cccc(F)c3)CC2)cc1 | 0 | 13 | 4 | -38 | 4963 | 3.7 | -4
COC(=O)CN1C(=S)N(c2ccc(OC)cc2)C(=O)/C1=C/c1cccs1 | -15 | -2 | 7 | -24 | 2071 | 2.3 | -2
O=C(NCc1ccco1)C(c1ccncc1)N(C(=O)Cn1nnc2ccccc21)c1ccccc1F (stereo not drawn) | 1 | 9 | 5 | -11 | 3695 | 2.2 | 6
CN1CCN(CCCNc2c(C=O)c(=O)[nH]c3ccccc23)CC1 | 9 | 13 | 5 | -22 | 3700 | 2.7 | 15
O=S1(=O)CCS(=O)(=O)C1c1ccccc1 | 2 | 11 | 28 | -25 | 3207 | 3.0 | 0
CS(=O)(=O)N1CCC2(CC1)OCCN2S(=O)(=O)c1ccccc1 | 12 | 9 | 11 | -9 | 6296 | 4.5 | 5
COc1ccc(CCNCCC(=O)Nc2c(C)cc(C)cc2C)cc1OC | -3 | 4 | 7 | -22 | 10181 | 0.8 | -3
COc1ccc(CN(C)CC(=O)NC(C)c2ccccc2)cc1OC (stereo not drawn) | 1 | 3 | -13 | -28 | 3325 | 1.8 | 0
COc1ccccc1-c1ocnc1C(=O)N1CCN(S(=O)(=O)c2ccc(NC(C)=O)cc2)CC1 | -13 | 3 | 10 | -29 | 6118 | 2.0 | 4
CC1CCC(CN2CCN=C2N(C)C)CC1 (stereo not drawn) | · | 15 | 12 | -1 | 3608 | 5.8 | -10
CS(=O)(=O)N(CCc1ccccc1)CC(=O)NCc1cccnc1 | -6 | · | · | 3 | 3573 | 1.9 | 6
COc1ccc(-c2cc(Cl)cc3c(=O)c4ccccc4n(C)c23)cc1F | -9 | 9 | 2 | -14 | 4012 | -12 | -1

A draw from above in order of length of the SMILES, falling:
SMILES | BJeLR viability | Mtb hypoxia inh | Mtb hypoxia inh growth | PrP 5UTR inh | Bead autofluor | Sa RN4220 lethal | ugtP null kill
COC(=O)c1cc(-c2ccc(Cl)cc2)n(-c2ccc(S(N)(=O)=O)cc2)n1 | -5 | 19 | 7 | -12 | 4492 | 1.9 | -3
COc1ccc(C(=O)NCC(=O)OCC(=O)Nc2cc(OC)ccc2OC)cc1 | -2 | -6 | -1 | -14 | 5573 | -6.7 | -5
CS(=O)(=O)N1CCC2(CC1)OCCN2S(=O)(=O)c1ccccc1 | 12 | 9 | 11 | -9 | 6296 | 4.5 | 5
COc1ccc(NC(=O)NCc2ccco2)cc1OC | -5 | -1 | 0 | -7 | 4239 | 1.0 | -2
CC1CCC(CN2CCN=C2N(C)C)CC1 (stereo not drawn) | · | 15 | 12 | -1 | 3608 | 5.8 | -10

(further entries)
SMILES | BJeLR viability | Mtb hypoxia inh | Mtb hypoxia inh growth | PrP 5UTR inh | Bead autofluor | Sa RN4220 lethal | ugtP null kill
CCOC(=O)c1cc(OC(=O)c2cccs2)n(-c2ccccc2)n1 | · | 1 | -3 | -21 | 10007 | 3.0 | 6
COC(=O)c1ccccc1NC(=O)C(=O)NCc1ccncc1 | 0 | 14 | 2 | -4 | 2027 | 3.8 | 9
Cn1ccnc1SCC(=O)Nc1cccc(C#N)c1 | · | 0 | 2 | -14 | 5465 | 3.8 | 1
COc1ccc2c(C)nc(Nc3nc(C)cc(C)n3)nc2c1 | 0 | -13 | -5 | -28 | ? | -2.3 | -16
O=C(c1ccco1)N1CCN(C(=O)c2ccccc2Oc2ccccc2)CC1 | -1 | 16 | 4 | -32 | 10281 | 3.2 | 1
C/C(=N\NC(=O)c1c(Cl)c(C)nn1C)c1cccc(NC(=O)COc2ccc(Cl)cc2)c1 | -2 | · | · | -18 | 4545 | · | ·
O=C(NC(=O)c1csnn1)Nc1ccccc1Cl | 3 | -12 | -14 | -35 | 5123 | -2.8 | -5
Cn1c(C(=O)O)c(CC(=O)Nc2ccccc2F)c2ccccc21 | 1 | 8 | 5 | -13 | 2693 | 2.6 | 6
CCOC(=O)/C=C(/C)N1N=C(c2ccc(OC)cc2)CC1c1cccc([N+](=O)[O-])c1 (stereo not drawn) | 12 | -3 | -4 | -31 | 2248 | 4.0 | 1
CCc1nccn1S(=O)(=O)c1ccc(C)c(C)c1 | 1 | · | · | 2 | 2181 | 2.6 | 7

Record cards, from the list above. Screens in order: BJeLR viability	Mtb hypoxia inh	Mtb hypoxia inh growth	PrP 5UTR inh	Bead autofluor	Sa RN4220 lethal	ugtP null kill
`COc1ccc2c(C)nc(Nc3nc(C)cc(C)n3)nc2c1` in the list: 0	-13	-5	-28	?	-2.3	-16
`COC(=O)c1ccccc1NC(=O)C(=O)NCc1ccncc1` in the list: 0	14	2	-4	2027	3.8	9
`CCOC(=O)/C=C(/C)N1N=C(c2ccc(OC)cc2)CC1c1cccc([N+](=O)[O-])c1` (stereo not drawn) in the list: 12	-3	-4	-31	2248	4.0	1
`O=C(c1ccco1)N1CCN(C(=O)c2ccccc2Oc2ccccc2)CC1` in the list: -1	16	4	-32	10281	3.2	1
